Assay outcomes from PubChem.
LANA-H2A inh: blocks KSHV LANA binding to histone H2A/H2B; Q9QR71; cell-free LANA-H2A/H2B peptide, fluorescence polarization; inhibition, % (test concentration not listed); 320,000 compounds, 0.6% hits; in the data active = inhibition mostly above about 10%, no sharp cut-off; inactive = mostly below about 6.7%;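 also: stock transfer was 7.5 nL into about 10 µL; 0% = median of vehicle wells and 100% = median of positive control wells; one replicate is shown; the record names a cut of 25% in any replicate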
T cruzi repl: T. cruzi replication inhibition; inhibition, % (concentration not given with the values); T. cruzi beta-gal in NIH3T3, luminescence, 90 h; 300,000 compounds, 1.4% hits;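 active = mean inhibition across valid replicates above about 55%, limit read from the data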;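 also: signal also drops with host cell toxicity which is not excluded here; 0% = plate median of DMSO wells and 100% = zero luminescence signal; higher percent means less beta-gal luminescence so fewer parasites; stock transfer was 50 nL into about 50 µL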
Calb FLC: affects C. albicans growth with fluconazole; C. albicans CaCi-2 (fluconazole-resistant clinical isolate) + fluconazole, Alamar Blue growth, 48 h; AID 1979; 300,000 compounds, 0.57% hits; growth inhibition, % (concentration not given with the values);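 active = most replicates above 75%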;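 also: all wells also contain fluconazole at 8 µg/ml as a sub-toxic cotreatment; 0% = median of DMSO wells and 100% = median of geldanamycin control wells; wells of about 8 µL received 7.5 nL stock; the first replicate is given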
Beta cell apopt: beta cell apoptosis inhibition | 300,000 compounds, 0.8% hits | INS-1E cytokine-induced death, ATP luminescence, 48 h; percent of positive-control rescue, neutral wells zero | AID 435005 | protection from apoptosis, % (concentration not given with the values);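 active = all replicates at 75% or more, or half of them and the mean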;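 also: 0% = cytokine-treated negative control wells and 100% = positive control rescue; higher means more ATP so stronger rescue from cytokine killing; wells of about 40 µL received 100 nL stock; the first replicate is given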
B2AR ag: activates human beta-2 adrenergic receptor causing internalization; Am2.2-beta2AR cells, FAP receptor internalization, flow cytometry; reference of the scale not given here; response, % (no concentration beside the values); 340,000 compounds, 0.43% hits; AID 504454;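 active = response above a set limit, near 3 SD of response in nonfluorescent compounds, cut at about 42% in these data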;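 also: stock transfer was 100 nL into about 11 µL; a reference agonist was the positive control; negative values mostly stem from fluorescent compounds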
Target sequence (P07550 whole entry, looked up): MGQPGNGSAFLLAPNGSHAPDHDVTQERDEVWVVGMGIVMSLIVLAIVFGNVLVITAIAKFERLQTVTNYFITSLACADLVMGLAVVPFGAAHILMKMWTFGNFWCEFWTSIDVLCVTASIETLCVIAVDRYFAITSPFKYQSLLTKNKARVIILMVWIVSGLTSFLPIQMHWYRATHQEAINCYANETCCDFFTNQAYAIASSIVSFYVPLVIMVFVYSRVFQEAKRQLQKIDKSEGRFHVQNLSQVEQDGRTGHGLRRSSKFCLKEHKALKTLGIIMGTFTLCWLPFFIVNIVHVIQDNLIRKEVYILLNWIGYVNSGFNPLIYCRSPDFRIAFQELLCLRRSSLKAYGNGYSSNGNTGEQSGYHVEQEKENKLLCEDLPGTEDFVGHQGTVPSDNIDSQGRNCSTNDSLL
A1 inh: inhibitors of the anti-apoptotic protein A1, read as caspase activation. 330,000 compounds, 0.066% hits. MEF A1-2A-BIM cells, Caspase-Glo 3/7 luminescence, 3 h; percent of clofoctol response, vehicle zero. caspase activation, % (concentration not given with the values). AID 2462;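 active = over half of replicate activation scores above 10%, or exactly half above 10 with the replicate mean above 10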;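 also: wells of about 30 µL received 50 nL stock; many hits fall short of the cut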
ALR inh: blocks human ALR sulfhydryl oxidase activity; P55789; purified ALR, DTT oxidation, H2O2 HRP-luminol luminescence; inhibition, % (no concentration beside the values); 290,000 compounds, 3.8% hits; AID 485317;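 active = mean and each replicate at 75% or more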;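 also: stock transfer was 7.5 nL into about 7.5 µL; 0% = neutral wells and 100% = wells with inactivated enzyme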
Target sequence (P55789 whole entry, looked up): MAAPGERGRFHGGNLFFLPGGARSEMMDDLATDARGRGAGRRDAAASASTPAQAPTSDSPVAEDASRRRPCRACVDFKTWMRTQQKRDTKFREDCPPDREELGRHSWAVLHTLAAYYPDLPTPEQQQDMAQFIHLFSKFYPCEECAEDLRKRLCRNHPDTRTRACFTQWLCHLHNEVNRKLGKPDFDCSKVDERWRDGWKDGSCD
Ecoli rRNA inh: inhibitors of bacterial rRNA selective over humanized ribosomes. E. coli WT GFP vs humanized-ribosome RFP mutants, fluorescence, 24 h; hits give low values; DMSO median 0, no signal -100. 350,000 compounds, 1.6% hits. GFP signal change (wild-type ribosome), % (no concentration beside the values). AID 720706;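 active = significant combined selectivity score with lowered wild-type GFP, culture density cut under 30%, mutant RFP and density less affected; inactive = any of these conditions unmet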; also: one replicate is shown; some compounds called inactive have numbers as strong as hits
Ecoli rRNA inh OD600: second read-out of Ecoli rRNA inh, no call of its own (marks repeat the call); OD600 change, %; measured here: OD600 growth;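 optical density of the mix in the first replicate; 0 = DMSO median and -100 = no signal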
Ecoli rRNA inh RFP: second read-out of Ecoli rRNA inh, no call of its own (marks repeat the call); RFP signal change, %; measured here: RFP humanized mutant strains;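 first replicate; 0 = DMSO median and -100 = no signal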
* hit, by the source's call; / = no result given; & = joins results of further samples.

SMILES | LANA-H2A inh | T cruzi repl | Calb FLC | Beta cell apopt | B2AR ag | A1 inh | ALR inh | Ecoli rRNA inh | Ecoli rRNA inh OD600 | Ecoli rRNA inh RFP
CCN(CC)C(=O)CSc1nnc(-c2ccc(S(=O)(=O)N3CCOCC3)cc2)n1C | -0.4 | -5 | -12 | 1 | -1 | 0.9 | / | 10 | 9 | -0.2
COc1ccc(NC(=S)N/N=C2\CC(C)(C)Oc3ccc(OC)cc32)cc1 | -3.4 | 15 | 9 | 5 | -1 | 0.6 | / | 9 | 12 | 2.3
c1ccc(CNc2ncnc3sccc23)cc1 | 2.9 | -22 | 21 | 38 | 2 | 0.2 | -1 | -21* | -13* | -4.9*
CCOC(=O)c1[nH]c(C)c(C(=O)NC2CCN(C(=O)OCC)CC2)c1C | 1.0 | -12 | -3 | 0 | -1 | 2.9 | 2 | / | / | /
Nc1ncnc2c1nc(SCCO)n2Cc1ccccc1 | 0.0 | -6 | -8 | -7 | -7 | 0.0 | -7 | 0 | -4 | -6.1
CC(C)(C)NC(=O)CN(CCN1CCOCC1)C(=O)CNS(=O)(=O)c1ccccc1 | 2.1 | -1 | 1 | -3 | -3 | 0.5 | / | 5 | 6 | -2.2
COc1cc(/C=N/Nc2ccccc2)ccc1OC(=O)c1cccs1 | 4.4 | / | / | -4 | / | 0.0 | -11 | / | / | /
Cc1ccc(S(=O)(=O)/N=C(/Nc2cccc(O)c2)c2ccccc2)cc1 | 7.6 | 0 | -7 | -8 | -7 | 0.7 | / | -13 | -6 | 1.1
Cc1ccc(S(=O)(=O)C2(C(=O)N(C)C3CCCCC3)CC2)cc1 | 0.9 | -9 | 35 | -1 | 4 | 0.6 | 14 | -11 | -10 | -5.2
O=C(Nc1ccccc1N1CCN(C(=O)c2ccccc2)CC1)c1ccc2c(c1)OCO2 | 1.0 | 18 | 36 | 3 | -2 | -0.1 | -11 | / | / | /
O=C(CN1CCC(NC(=O)Nc2ccccc2-c2ccccc2)CC1)NCc1ccco1 | 6.8 | 0 | -18 | -12 | -5 | 1.4 | / | / | / | /
O=C(NC1CCCCCCC1)C1CCN(S(=O)(=O)N2CCC3(CC2)OCCO3)CC1 | 13 | -7 | -24 | 2 | -9 | 0.5 | -2 | -6 | -1 | -1.0
CCC(=O)Oc1c(S(=O)(=O)c2ccc(C)cc2)c(C)nn1C(C)(C)C | -1.8 | -25 | 1 | -11 | 7 | 0.3 | -4 | / | / | /
CC(=O)CC(=O)NC1C2CC3CC(C2)CC1C3 (stereo not drawn) | 1.4 | 4 | -4 | 0 | 2 | 0.6 | 28 | / | / | /
COc1ccc(CNC(=O)C(Cc2ccccc2)n2cccc2)cc1 (stereo not drawn) | 2.5 | -1 | 1 | 5 | -3 | 0.7 | 2 | -5 | -3 | -3.8
O=C(Nc1nc2ccc(S(=O)(=O)N3CCOCC3)cc2s1)c1cccs1 | -4.1 | 3 | -15 | 2 | -11 | 1.3 | -3 | 16 | 16 | 2.3
COc1cc(O)c(C(CC(=O)N2CCCC2)c2ccc(N(C)C)cc2)c(OC)c1 (stereo not drawn) | 3.1 | -21 | 3 | 0 | -7 | 0.7 | 98* | / | / | /
CCCCNC(=O)CCn1c(=O)c2cccn2c2ccc(F)cc21 | 3.9 | -8 | -1 | -1 | -14 | 0.4 | -13 | -1 | 11 | 2.2
CCCc1cc(C(=O)Nc2cccc(Cl)c2C)no1 | 0.3 | 3 | -16 | 3 | 6 | -2.7 | / | -5 | -15 | -2.5
O=C(NCC(=O)N1CCN(C(c2ccccc2)c2ccccc2)CC1)c1ccccc1F | 0.9 | 8 | 4 | -1 | 7 | -0.1 | -1 | 2 | -6 | -0.8
O=C(Cn1cccc1C(=O)c1ccccc1)NCc1ccc2c(c1)OCO2 | 3.8 | -4 | 10 | -7 | -4 | -0.2 | / | / | / | /
COc1ccc(OC)c(NC(=O)NNS(=O)(=O)c2ccc(C)cc2C)c1 | 1.7 | -10 | -10 | -8 | -4 | 0.2 | -3 | 3 | 12 | 1.2
Cc1[nH]c(C)c(S(=O)(=O)N2CCCCC2)c1C(=O)N1CCCC1 | -2.6 | -11 | -6 | -3 | -3 | -0.3 | -15 | 12 | 15 | 3.3
COC(=O)c1ccc(-c2cc(CC3(C(=O)OC)CCN(C(=O)OC(C)(C)C)CC3)on2)cc1 | 1.9 | -10 | -5 | 4 | -3 | -0.3 | / | 4 | 6 | -4.3
CCOC(=O)c1cccnc1NC(=O)c1ccccc1 | -3.3 | -18 | -7 | -9 | 1 | 0.6 | -19 | 5 | -1 | -1.1
SMILES | LANA-H2A inh | T cruzi repl | Calb FLC | Beta cell apopt | B2AR ag | A1 inh | ALR inh | Ecoli rRNA inh | Ecoli rRNA inh OD600 | Ecoli rRNA inh RFP
CN(CC(=O)Nc1cccc(F)c1)C(=O)c1cc(S(=O)(=O)N2CCCCC2)ccc1N1CCOCC1 | -6.9 | 0 | -2 | 10 | -2 | -0.2 | -1 | 8 | 4 | 1.0
Cc1ccc(C(=O)NCC(=O)OC(C)C(=O)Nc2ccccc2[N+](=O)[O-])s1 (stereo not drawn) | -0.8 | / | / | 0 | -4 | 1.2 | -4 | -3 | 7 | -2.3
Cc1cc(C)c(OCCN2C(=O)NC(C)(C)C2=O)c(Cl)c1 | 4.4 | -7 | -4 | 1 | 1 | 0.5 | 0 | / | / | /
O=C(CCn1c(=O)sc2ccccc21)Nc1nc2ccccc2s1 | 1.8 | 2 | 1 | -1 | -19 | -0.7 | / | -39 | -65 | -3.2
O=C(NC(c1ccccc1)c1ccccc1)C1CCCO1 (stereo not drawn) | -6.4 | 10 | -6 | -2 | -3 | 0.8 | -10 | -4 | -8 | -1.2
CCCCOc1ccc(C(=O)Nc2ccc3c(c2)OCO3)cc1 | 3.8 | 2 | -21 | 1 | -1 | -0.7 | -4 | 2 | 16 | -2.6
C[C@H]1CN([C@@H](C)CO)C(=O)c2cccc(NC(=O)C3CC3)c2O[C@H]1CN(C)S(=O)(=O)c1ccccc1 | 3.2 | / | / | -13 | -5 | 0.3 | 2 | 1&3 | 0&-1 | 0.0&-1.1
CCOc1ccc(NC(=O)c2c(NC(=O)CN3CCN(C)CC3)sc3c2CCC3)cc1 | 0.9 | 26 | 0 | -1 | 1 | 0.3 | -11 | 8 | 17 | -0.9
COC1CCCCC1Nc1cc(C)ccc1C (stereo not drawn) | -1.1 | -29 | -29 | -8 | -1 | -0.7 | -4 | 4 | 3 | -3.9
COc1ccc(-c2cn(CCO)c(CCN)n2)cc1 | -1.6 | / | / | 4 | -2 | 0.2 | 9 | 10 | 11 | 1.8
CCC(=O)Nc1cccc(C2=NOC3(C2)C[C@@H](C(N)=O)N(C(=O)CC(c2ccccc2)c2ccccc2)C3)c1 (stereo partly drawn) | -3.1 | 12 | 3 | -10 | -19 | 0.8 | -2 | -6 | -23 | 16
O=C(NCCNCCO)c1c(O)c2cccc3c2n(c1=O)CCC3 | -4.8 | 12 | 18 | 6 | 2 | -0.5 | -1 | / | / | /
CCN(C(=O)COC(=O)c1nccnc1N)c1cccc2ccccc12 | -3.6 | / | / | -11 | 3 | 0.5 | -19 | 11 | 8 | 0.0
COC(=O)c1cccc(NC(=O)c2cc(OC)c(OC)c(OC)c2Br)c1 | 4.1 | -18 | 10 | 9 | 9 | -0.8 | 10 | -7 | 1 | -1.4
C=CCN1C(=O)S/C(=C\c2ccc3c(c2)n(C)c(=O)n3C)C1=O | 2.4 | 5 | -3 | 1 | 9 | -0.4 | 10 | 3 | 7 | -4.4
O=C(NCCCn1ccnc1)c1ccc(Br)cc1 | -2.8 | 0 | -22 | 4 | -3 | -0.3 | -6 | 0 | 4 | 0.8
COc1ccc(/C=N/NC(=O)c2ccc(Cl)cc2Cl)cc1COC(C)=O | -2.3 | -14 | -21 | -9 | -6 | -0.8 | 2 | -4 | -13 | -9.0
COc1cc(CNc2cc(C)ccc2C)cc(OC)c1OC | 3.8 | -78 | -24 | 3 | 3 | 0.5 | 99* | 6 | 5 | 3.5
O=C(COC(=O)CN1C(=O)c2ccccc2C1=O)Nc1cccc(F)c1 | 2.7 | / | / | -4 | 5 | -0.2 | -1 | / | / | /
Cc1nc2nc(SCc3ccccc3)[nH]n2c(=O)c1C | -3.9 | 5 | -13 | -4 | 2 | 1.2 | -1 | 6 | 0 | 4.5
CC(C)C(=O)Nc1cccc(C(=O)Nc2cc([N+](=O)[O-])ccc2F)c1 | 1.3 | -7 | 15 | -1 | -1 | 0.0 | -1 | 2 | 4 | -1.7
Cc1ccc2[nH]c(C)c(/C=C/c3cc[n+](C)cc3)c2c1 | -166 | 57* | 94* | 72 | -933 | 0.7 | 99* | 58 | 16 | 30
OC(CNCc1ccccc1F)(c1ccc(F)cc1)c1ccc(F)cc1 | -2.7 | 21 | -21 | -8 | 21 | 0.4 | 0 | -18 | -15 | -1.1
COc1ccc(N(CC(=O)NCC2CCCO2)S(=O)(=O)c2c(C)noc2C)cc1 (stereo not drawn) | 8.0 | -3 | 5 | 1 | -3 | 0.6 | / | / | / | /
Cc1cccc(Cn2c(C)nc3c(N)c(C)c(C)cc32)c1 | -2.0 | 10 | -6 | 1 | -2 | 1.3 | 10 | -20 | -20 | 14
SMILES | LANA-H2A inh | T cruzi repl | Calb FLC | Beta cell apopt | B2AR ag | A1 inh | ALR inh | Ecoli rRNA inh | Ecoli rRNA inh OD600 | Ecoli rRNA inh RFP
Cc1ccsc1/C=N/Nc1ccc(F)cc1F | -4.9 | 13 | -26 | 2 | -4 | -5.2 | -2 | 0 | 3 | 1.1
COc1ccccc1NS(=O)(=O)c1cc(C(=O)N2CCCCCC2)ccc1C | -0.2 | / | / | 5 | 4 | 0.2 | -7 | -4 | -19 | 1.7
CCC(C)(C)NC(=O)CSc1nc(Cc2ccccc2)nc2ccccc12 | -4.1 | 17 | -28 | -1 | -19 | 0.3 | 53 | 3 | 11 | 0.4
Cc1cc(C)nc(OC(=O)c2c(Cl)cc(Cl)cc2Cl)n1 | 0.7 | 48 | 8 | -1 | 0 | 0.9 | -3 | 11 | 1 | 2.8
O=C(CCN1CCN(c2ccc(Cl)cc2)CC1)Nc1nccs1 | -1.6 | 23 | 24 | -9 | -6 | 1.8 | 25 | / | / | /
COc1cc(NC(=O)c2cccnc2)ccc1NC(=O)c1ccccc1Cl | 3.6 | -20 | -1 | 2 | -3 | 1.4 | 7 | 0 | 0 | -3.1
O=C(Cn1c(=O)n(-c2ccccc2)c(=O)c2oc3ccccc3c21)Nc1ccccc1 | 1.4 | 18 | -2 | -2 | -5 | -1.6 | 12 | / | / | /
CCOCCCNC(=O)C(NC(=O)c1ccccc1O)c1ccc(Cl)cc1 (stereo not drawn) | -0.8 | -17 | -2 | -4 | 5 | 0.2 | 6 | / | / | /
COc1cc2[nH]c(=O)n(Cc3ccc(C(=O)NCCCN4CCC(C)CC4)cc3)c(=O)c2cc1OC | -1.4 | -4 | -6 | 0 | 6 | 0.0 | -15 | / | / | /
CCNC(=O)c1ccc(NS(=O)(=O)c2ccccc2)cc1 | 5.3 | -13 | -3 | 1 | -7 | 0.4 | -10 | / | / | /
Cn1c(=O)c2c(nc(NCc3ccco3)n2C)n(C)c1=O | -2.3 | -5 | 6 | 2 | 8 | 0.3 | 5 | / | / | /
Cn1c(SCC(=O)c2ccc(-c3ccccc3)cc2)nnc1-c1ccco1 | -0.1 | 1 | 23 | 6 | -4 | 0.6 | 88* | / | / | /

The list is partial; count on the stated rates, not on these rows.
